Bioassay records: PubChem BioAssay, National Center for Advancing Translational Sciences (NCATS)
VDR inhibitor: inhibitors of human vitamin D receptor; P11473; VDR-SRC2-3 peptide fluorescence polarization, 2 h; Potency, µM, without a hit: max response, negative = inhibition, hits mostly inhibitors; 400,000 tested, 0.93% active; AID 504847; active = well fitted inhibition curve with a large enough effect; inconclusive = small, poorly fitted or top-dose-only effect, or another doubt; inactive = no such curve, though single readings can be large or run the other way; also: series mostly up to about 120 µM
Target sequence (P11473 whole entry, looked up): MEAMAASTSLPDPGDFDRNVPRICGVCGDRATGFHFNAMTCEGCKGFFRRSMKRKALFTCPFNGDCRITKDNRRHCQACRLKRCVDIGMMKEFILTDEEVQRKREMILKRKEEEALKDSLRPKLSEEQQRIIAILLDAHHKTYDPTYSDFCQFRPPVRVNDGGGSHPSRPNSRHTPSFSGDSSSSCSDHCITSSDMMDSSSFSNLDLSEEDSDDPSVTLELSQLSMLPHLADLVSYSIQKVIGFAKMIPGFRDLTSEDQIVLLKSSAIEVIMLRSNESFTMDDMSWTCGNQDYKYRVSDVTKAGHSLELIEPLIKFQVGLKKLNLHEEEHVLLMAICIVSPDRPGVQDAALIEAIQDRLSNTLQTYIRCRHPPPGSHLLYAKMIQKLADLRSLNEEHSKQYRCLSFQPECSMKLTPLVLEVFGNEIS
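Fluorescence polarization assay of small-molecule disruption of VDR binding to coregulator peptide SRC2-3. Compounds and controls pin-transferred, then read after 2 h incubation at ambient room temperature.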
The depositor's hits bear a star; ? = inconclusive; & = joins results of further samples. % is scaled to controls: 0 for no effect and ±100 for the full control effect; potency is read from the fitted curve at half-maximal effect. This is a subset; count on the stated rates, not on these rows.

VDR inhibitor	mol
-8.5%	COc1ccc(S(=O)(=O)NCCc2nnc3ccc(SCC(=O)Nc4nc(C)cs4)nn23)cc1
2.4%	CC(C)CC(C(=O)NCCc1ccccc1)N1Cc2ccccc2C1=O (stereo not drawn)
-3.7%	NC1=C(c2ccccc2)C(=O)NC1=O
18.6%	COc1cccc(-c2nc(CS(=O)(=O)CC(=O)NC3CCCC3)c(C)o2)c1
-15.1%	CC(C)CC(OC(=O)c1nsc(Cl)c1Cl)C(=O)NCC1CCCO1 (stereo not drawn)
-15.9%	CCCCN(CCCNC(=O)Cn1nc(CC)n2c(cc3sc(C)cc32)c1=O)Cc1ccccc1
-1.8%	C/C(=N\NC(=O)Cc1ccc(O)cc1)c1cccnc1
-15.4%	COc1ccc(-n2c(COc3ccc(C)cc3)nnc2SCC(=O)O)cc1
19.6%&13.9%	CCC(C)(C)NC(=O)C(NS(=O)(=O)c1cccs1)c1ccccc1 (stereo not drawn)
-20.2%	CCOC(=O)C(NC(=O)c1ccccc1)(OCc1ccccc1)C(F)(F)F (stereo not drawn)
20.5%	COc1ccc(CNC(=O)CSc2nnnn2C)cc1OC
-5.7%	CCCCn1c(N)c(N(CC)C(=O)c2ccc(N(C)S(=O)(=O)c3ccc(C)cc3)cc2)c(=O)[nH]c1=O
-18.4%	CCOC(=O)N1CCN(C(=O)COc2ccc(Br)cc2Cl)CC1
-10.3%	COc1ccc(-n2nc(C(=O)Nc3cc(OC)c(OC)c(OC)c3)c3ccccc3c2=O)c(OC)c1
6.2%	C=CCc1c(C)nn(CC(=O)O)c1-c1ccccc1
-13.7%	O=C(NC1CCCCC1)C1CCC(=O)N(Cc2cccc(C(F)(F)F)c2)C1 (stereo not drawn)
5.5%	CCc1nnc(NC(=O)CCN2C(=O)CCC2=O)s1
-3.3%	CCc1nc2ccc(C)cc2c(C(=O)NC2CCCCC2C)c1C (stereo not drawn)
11.4%	O=c1[nH]ncc2c3ccccc3n(Cc3ccccc3)c12
0.6%&5.7%	COCCNC(=O)CCn1nc(-c2ccc(Cl)cc2)c2ccccc2c1=O
-10.6%	CCOC(=O)C1CCCCN1Cc1cccc(OCc2ccccc2)c1 (stereo not drawn)
17.3%	COC(=O)c1sccc1NC(=O)Nc1cc(C)cc(C)c1
5.0%	O=C(c1ccccc1F)N1CCN(Cc2cccc(Cl)c2)CC1
-3.7%	Cc1ccccc1NC(=S)N1CCN(c2ccccc2Cl)CC1
4.8%	CC(=O)Nc1ccc(C(=O)CN2C(=O)NC3(CCCCCC3)C2=O)c(F)c1
22.0%	COC(=O)c1cc2c(cc1NC(=O)c1c(C)nn(-c3ccc(C)cc3)c1-n1cccc1)OCO2
2.4%	COc1cccc([C@@H]2Oc3ccc(OC)cc3C(=O)[C@H]2OC(=O)N[C@H](C)C2CCCCC2)c1
-25.7%	Cc1cc(C(=O)CSc2ncn[nH]2)c(C)n1-c1cccc(S(=O)(=O)N2CCOCC2)c1
-4.8%	CC(C)CNC(=O)COc1cccc(C(=O)NCc2ccccc2)c1
15.0%	CC(C)CNC(=O)c1ccccc1NC(=O)c1ccc(CN2CCOCC2)cc1
?	O=C(Nc1cccnc1)Nc1cccc([N+](=O)[O-])c1
-14.1%	CC(=O)Nc1cccc(C)c1
-3.5%	COCCn1c(-c2ccccc2)nc2oc3cc(OC)ccc3c(=O)c2c1=O
-7.7%	CCS(=O)(=O)c1ccc(N)cc1
8.0%	C[n+]1cccc(C(=O)Nc2ccccc2)c1
-18.6%	CC(NC(=O)C12CC3CC(C)(CC(C)(C3)C1)C2)c1ccncc1 (stereo not drawn)
-9.5%	O=C(O)c1ccc(N=NN2CCCCCC2)cc1
2.2%	O=C(Nc1ccc2nc(SCC(=O)N3CCCc4ccccc43)sc2c1)c1ccccc1
-15.0%	Nc1c(N(CCO)C(=O)C2CCCC2)c(=O)[nH]c(=O)n1Cc1ccccc1
-20.7%	CC(C)CN(C(=O)CCc1ccccc1)c1c(N)n(CC(C)C)c(=O)[nH]c1=O
-3.8%	O=C(Nc1ccccc1)c1ccc(NCC2CCCO2)c(S(=O)(=O)N2CCOCC2)c1 (stereo not drawn)
1.4%	NCCCC[C@H](NC(=O)[C@@H](Cc1ccccc1)NC(=O)[C@H](Cc1c[nH]c2ccccc12)NC(=O)[C@@H](CCCCN)NC(=O)[C@@H](Cc1c[nH]c2ccccc12)NC(=O)[C@@H](N)Cc1cnc[nH]1)C(N)=O
-14.5%	CCCC(NC(=O)c1c(C)noc1C)C12CC3CC(CC(C3)C1)C2 (stereo not drawn)
-3.2%	O=C(NCC1CC1)c1cc([N+](=O)[O-])cc([N+](=O)[O-])c1
0.4%	Cc1ccc(NC(=O)CCC(=O)NNC(=O)/C=C/C(=O)O)c(C)c1
5.0%	COc1cc(NC(=O)CCc2c(C)nc3c(c(C)nn3-c3ccccc3)c2C)cc(OC)c1OC
8.7%	COc1ccc(C2C3=C(CC(C)(C)CC3=O)Oc3ncn(CCO)c(=N)c32)cc1OC (stereo not drawn)
-4.7%	CC(=O)c1ccc(S(=O)(=O)Oc2ccc(C(=O)O)cc2Cl)cc1
3.9%	Cn1ncc2c1ncn1nc(COc3ccc4ccccc4c3)nc21
-3.2%	COc1ccc(CNC(=O)C[C@H]2C[C@H](C(=O)N3CCCCC3)[C@@]3(C)c4[nH]c5cc(-c6ccco6)ccc5c4CCN3C2=O)cc1OC
-0.3%	CCOC(=O)C1CCN(CC(C)(C)NS(=O)(=O)c2ccc(C)cc2)CC1
6.1%	Cc1ccc2c(c1)N(CCC(=O)NCCCN1CCCC1)C(=O)C(C)O2 (stereo not drawn)
2.0%	CNc1ncnc2ccc(-c3ccccc3C#N)cc12
-9.7%	COc1cc(NS(=O)(=O)c2c(C)[nH]c(C)c2C(=O)N2CCCCC2)cc(OC)c1OC
1.2%	Cc1cc(C)c(S(=O)(=O)NCc2cn3ccccc3n2)c(C)c1
-2.4%	COc1ccc(/C(O)=C2\C(=O)C(=O)N(CCN(C)C)C2c2cccc(OC)c2OC)cc1Cl (stereo not drawn)

Additional structures.
VDR inhibitor	mol
-18.9%	Cc1nc2ccccn2c1C(=O)NC1CCCc2ccccc21 (stereo not drawn)
14.7%	O=C(CCCC(=O)OCC(=O)NC1CCCC1)Nc1ccccn1
-1.9%	O=C1CSC(c2ccccc2F)N1 (stereo not drawn)
5.7%	Cc1cc(C)n2nc(SCc3ccccc3C(=O)O)nc2n1
-6.8%	CCC(C(=O)Nc1cccc(OC)c1)n1nc(C)c2c(C)n(-c3ccccc3)nc2c1=O (stereo not drawn)
-11.7%	O=C(NCC(=O)N(c1cccnc1)C(C(=O)NC1CCCC1)c1ccccc1)c1ccco1 (stereo not drawn)
6.5%	NCCNc1ccc([N+](=O)[O-])c(Sc2nc3ccccc3[nH]2)c1
-8.1%	COc1ccc(CC(=O)NNC(=O)CCc2ccccc2)cc1
-18.3%	COc1cc(C(=O)NC(C)Cc2ccccn2)ccc1OC1CCN(C(C)=O)CC1 (stereo not drawn)
13.6%	C/C=C/c1ccc(OCC(O)CNCCc2ccc(OC)cc2)c(OC)c1 (stereo not drawn)
?	CNC(=O)c1nc(C)n(-c2cc(Cl)ccc2Cl)n1
-4.1%	CCOc1ccc(C(=O)N2CCN(c3ccccc3)CC2)cc1OCC
-5.5%	CCc1nnc(NC(=O)C2Cc3ccccc3CN2S(=O)(=O)c2ccc(C)cc2)s1 (stereo not drawn)
-8.5%	N#Cc1cccnc1Oc1ccccc1
-21.3%	CC(=O)c1cc2c(cc1NC(=O)Cc1ccsc1)OCO2
-2.3%	O=C(COc1ccc2c3c(c(=O)oc2c1)CCCC3)NCCCN1CCCC1=O
-2.8%	CCCCN(C)C(=O)c1oc2ccc(S(=O)(=O)N3CCCCCC3)cc2c1C
9.3%	CCc1cc(CNC(=O)CCc2nnc(CCCc3ccccc3)o2)on1
2.8%	O=C(Cc1ccc(Cl)cc1Cl)Nc1ccncc1Cl
9.2%	c1csc(-c2cc(N3CCCCC3)c3ccccc3n2)c1
-16.0%	COc1ccc(OC)c(S(=O)(=O)N2CCN(CC(O)CN3CCOCC3)CC2)c1 (stereo not drawn)
-3.6%	C/C(=N\NC(=O)c1cccnc1)c1ccc(-n2ccnc2)cc1
19.2%	COc1ccc(N=C2S/C(=C\c3ccco3)C(=O)N2CC(C)C)cc1
-10.3%	COCCn1nnnc1CN1CCN(c2cccc(C(F)(F)F)c2)CC1

20 successive compounds from above:
VDR inhibitor	mol
14.7%	O=C(CCCC(=O)OCC(=O)NC1CCCC1)Nc1ccccn1
-1.9%	O=C1CSC(c2ccccc2F)N1 (stereo not drawn)
5.7%	Cc1cc(C)n2nc(SCc3ccccc3C(=O)O)nc2n1
-6.8%	CCC(C(=O)Nc1cccc(OC)c1)n1nc(C)c2c(C)n(-c3ccccc3)nc2c1=O (stereo not drawn)
-11.7%	O=C(NCC(=O)N(c1cccnc1)C(C(=O)NC1CCCC1)c1ccccc1)c1ccco1 (stereo not drawn)
6.5%	NCCNc1ccc([N+](=O)[O-])c(Sc2nc3ccccc3[nH]2)c1
-8.1%	COc1ccc(CC(=O)NNC(=O)CCc2ccccc2)cc1
-18.3%	COc1cc(C(=O)NC(C)Cc2ccccn2)ccc1OC1CCN(C(C)=O)CC1 (stereo not drawn)
13.6%	C/C=C/c1ccc(OCC(O)CNCCc2ccc(OC)cc2)c(OC)c1 (stereo not drawn)
?	CNC(=O)c1nc(C)n(-c2cc(Cl)ccc2Cl)n1
-4.1%	CCOc1ccc(C(=O)N2CCN(c3ccccc3)CC2)cc1OCC
-5.5%	CCc1nnc(NC(=O)C2Cc3ccccc3CN2S(=O)(=O)c2ccc(C)cc2)s1 (stereo not drawn)
-8.5%	N#Cc1cccnc1Oc1ccccc1
-21.3%	CC(=O)c1cc2c(cc1NC(=O)Cc1ccsc1)OCO2
-2.3%	O=C(COc1ccc2c3c(c(=O)oc2c1)CCCC3)NCCCN1CCCC1=O
-2.8%	CCCCN(C)C(=O)c1oc2ccc(S(=O)(=O)N3CCCCCC3)cc2c1C
9.3%	CCc1cc(CNC(=O)CCc2nnc(CCCc3ccccc3)o2)on1
2.8%	O=C(Cc1ccc(Cl)cc1Cl)Nc1ccncc1Cl
9.2%	c1csc(-c2cc(N3CCCCC3)c3ccccc3n2)c1
-16.0%	COc1ccc(OC)c(S(=O)(=O)N2CCN(CC(O)CN3CCOCC3)CC2)c1 (stereo not drawn)

Further compounds.
VDR inhibitor	mol
13.1%	N#C/C(=C\c1ccc(-c2ccc([N+](=O)[O-])cc2Br)o1)C(=O)N1CCN(c2ccccc2)CC1
-1.6%	COc1ccc(NC(=O)CSc2nnnn2C2CC2)cc1S(=O)(=O)N1CCOCC1
2.7%	COc1ccccc1NC(=O)CSc1nc(-c2ccc(C(C)(C)C)cc2)c(C#N)c(=O)[nH]1
?	COc1ccc(C(C)=NNc2ccc([N+](=O)[O-])cc2S(=O)(=O)Nc2ccccc2C(=O)O)c(OC)c1
2.0%	CC/C(O)=C(\C#N)c1nnc2n1CCCCC2
-2.5%	O=C(CCCCn1c(=O)c2ccccc2n(CC(=O)Nc2cccc(C(F)(F)F)c2)c1=O)NCc1ccc2c(c1)OCO2
1.7%	O=[N+]([O-])c1cccc(-c2nnnn2-c2cccc(F)c2)c1
-0.4%	O=C(CSc1cc(Cl)ccc1Cl)NC1CC1

Part of the list above, field by field.
compound: COc1ccc(C(C)=NNc2ccc([N+](=O)[O-])cc2S(=O)(=O)Nc2ccccc2C(=O)O)c(OC)c1
  VDR inhibitor = ?

compound: CC/C(O)=C(\C#N)c1nnc2n1CCCCC2
  VDR inhibitor = 2.0%

compound: O=C(CCCCn1c(=O)c2ccccc2n(CC(=O)Nc2cccc(C(F)(F)F)c2)c1=O)NCc1ccc2c(c1)OCO2
  VDR inhibitor = -2.5%

Additional structures follow:
VDR inhibitor	mol
2.6%	COC(=O)Cn1c(C)nc2c(sc3nc(C)cc(C)c32)c1=O
-6.0%	Cc1onc(-c2ccccc2Cl)c1C(=O)NCc1ccc(N2CCCC2=O)cc1
-2.3%	CCn1ccnc1CNCc1ccc(OCC(O)CN(C)Cc2ccccc2)cc1 (stereo not drawn)
-20.4%	CCc1ccc2oc(-c3cc(NC(=O)c4cc(OC)c(OC)c(OC)c4)ccc3O)nc2c1
-10.0%	COc1ccc2cc3c(N)nn(C(=O)Cc4ccccc4OC)c3nc2c1
-4.5%	O=C(CSc1ncn[nH]1)c1ccco1
-7.5%	CN(CC(=O)N1CCC(C(N)=O)CC1)S(=O)(=O)c1ccc2ccccc2c1
5.3%	CC(=O)CC(=O)Nc1ccc(Cl)cn1
5.9%	CCOC(=O)Nc1ccc(C(=O)c2ccncc2)cc1
-0.8%	CCOC(=O)C(=O)Nc1cc(Cl)ccc1C
-5.5%	CN(C)S(=O)(=O)c1cccc(C(=O)Nc2cc(S(=O)(=O)N3CCOCC3)ccc2O)c1
6.0%	Cc1ccc(-c2nnn(Cc3nc4ccccc4s3)n2)cc1
3.4%	CC(C)(C)OC(=O)NCC(=O)N1CCC(C(=O)O)CC1
-15.6%	O=C(CSc1nc2ccccc2s1)Nc1cc(C(=O)O)cc(C(=O)O)c1
-8.2%	CCOC(=O)c1ccc(CNCc2ccc(C)cc2)cc1
-1.4%	C=C1CCC(=O)C(C)CCC2C1CC2(C)C (stereo not drawn)
